Ecoli rRNA inh – reduced GFP signal of wild-type E. coli, primary screen, bacterial rRNA inhibitor project, GFP/RFP fluorescence, OD600, single point. E. coli WT GFP vs humanized-ribosome RFP mutants, 24 h; stronger effect = lower value; DMSO median 0, no signal -100. GFP signal change (wild-type ribosome), % (concentration not given with the values). AID 720706, 2013. 350,000 compounds, 1.6% hits;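 active = significant combined selectivity score with lowered wild-type GFP, culture density cut under 30%, mutant RFP and density less affected; inactive = any of these conditions unmet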; note: one replicate is shown; some compounds called inactive have numbers as strong as hits
Ecoli rRNA inh OD600 – also measured in Ecoli rRNA inh; calls as there; OD600 change, %; measured here: OD600 growth;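 optical density of the mix in the first replicate; 0 = DMSO median and -100 = no signal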
Ecoli rRNA inh RFP – further read-out of Ecoli rRNA inh, marked with its call; RFP signal change, %; measured here: RFP humanized mutant strains;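 first replicate; 0 = DMSO median and -100 = no signal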
The depositor's hits bear a star. An excerpt. The share of hits here may be higher or lower than overall.

Screening Cc1noc(C)c1NC(=O)N(C)C[C@@H]1Oc2ccc(NS(=O)(=O)c3cccs3)cc2CC(=O)N([C@H](C)CO)C[C@@H]1C returned Ecoli rRNA inh 4.8, Ecoli rRNA inh OD600 8.9 and Ecoli rRNA inh RFP -1.0.
`C[C@@H]1CCCCO[C@H](CN(C)C(=O)C2CCCCC2)[C@H](C)CN([C@H](C)CO)C(=O)c2cc(N(C)C)ccc2O1` gave Ecoli rRNA inh -6.5, Ecoli rRNA inh OD600 -2.5 and Ecoli rRNA inh RFP 2.0.
For CCOC(=O)N(C)[C@H]1C[C@H]2c3cc(-c4ccccc4C)ccc3CCN2C[C@H]1[C@H](C)O the results were Ecoli rRNA inh -9.1, Ecoli rRNA inh OD600 2.6 and Ecoli rRNA inh RFP 7.2.
CCC(=O)NC[C@H]1[C@@H](c2ccc(C3=CCCC3)cc2)[C@@H](CO)N1CC1CC1 was read as Ecoli rRNA inh 0.1, Ecoli rRNA inh OD600 -1.9 and Ecoli rRNA inh RFP -1.4.
`CS(=O)(=O)N1[C@@H]2CN(CC3CC3)C[C@H]1C2c1ccc(Br)cc1` (some centres not stated) gave Ecoli rRNA inh -5.8, Ecoli rRNA inh OD600 -11.3 and Ecoli rRNA inh RFP 3.3.
`CO[C@@H]1CN(C)C(=O)c2ccc(NC(C)=O)cc2OC[C@H](C)N(Cc2cccnc2)C[C@H]1C` gave Ecoli rRNA inh -1.3, Ecoli rRNA inh OD600 -2.3 and Ecoli rRNA inh RFP -0.5.
CC(=O)N1[C@H](CO)[C@@H](c2ccccc2)[C@H]1CN(C(=O)c1ccccc1)C(C)C was read as Ecoli rRNA inh -0.1, Ecoli rRNA inh OD600 3.9 and Ecoli rRNA inh RFP 0.9.
Screening CC(C)NC(=O)Nc1ccc2c(c1)C(=O)N(C)[C@@H]1CC[C@H](CC(=O)NC3CCCCC3)O[C@H]1CO2 returned Ecoli rRNA inh 1.3, Ecoli rRNA inh OD600 0.0 and Ecoli rRNA inh RFP -0.3.
`COc1ccc(CN(C)C[C@H]2OCCCC[C@H](C)Oc3ccc(NC(=O)Cc4ccccc4)cc3C(=O)N([C@@H](C)CO)C[C@@H]2C)cc1` gave Ecoli rRNA inh -2.7, Ecoli rRNA inh OD600 -6.5 and Ecoli rRNA inh RFP 0.6.
Screening Cc1cccc(-c2ccc([C@H]3[C@H]4CN(C(=O)c5ccc6c(c5)OCO6)CC(=O)N4[C@H]3CO)cc2)c1 returned Ecoli rRNA inh -4.9, Ecoli rRNA inh OD600 -20.4 and Ecoli rRNA inh RFP 1.3.
Screening C[C@@H]1CN([C@@H](C)CO)C(=O)c2cc(-c3ccccc3)cnc2O[C@H]1CN(C)C(=O)c1cccc(F)c1 returned Ecoli rRNA inh 1.0, Ecoli rRNA inh OD600 0.8 and Ecoli rRNA inh RFP -5.3.
Screening CN1CCN(C(=O)C[C@H]2C[C@H]3c4cc(NC(=O)c5cccnc5)ccc4O[C@H]3[C@@H](CO)O2)CC1 returned Ecoli rRNA inh 1.4, Ecoli rRNA inh OD600 1.4 and Ecoli rRNA inh RFP -0.1.
Screening C[C@@H]1CN([C@H](C)CO)C(=O)c2cc(NS(C)(=O)=O)ccc2O[C@@H]1CN(C)S(=O)(=O)c1ccc(Cl)cc1 returned Ecoli rRNA inh -4.8, Ecoli rRNA inh OD600 -6.0 and Ecoli rRNA inh RFP -2.1.
`CO[C@H]1CN(C)C(=O)c2cc(NC(=O)c3ccc(F)cc3)ccc2OC[C@@H](C)N(C(=O)CC2CC2)C[C@H]1C` gave Ecoli rRNA inh 0.8, Ecoli rRNA inh OD600 -0.3 and Ecoli rRNA inh RFP -1.5.
For CCCC(=O)Nc1ccc2c(c1)OC[C@H](C)N(Cc1nccs1)C[C@@H](C)[C@H](OC)CN(C)C2=O the results were Ecoli rRNA inh -4.3, Ecoli rRNA inh OD600 -3.2 and Ecoli rRNA inh RFP -2.7.
Screening CNC(=O)C[C@@H]1CC[C@H]2[C@@H](COc3ccc(NC(=O)C4CC4)cc3C(=O)N2C)O1 returned Ecoli rRNA inh -2.1, Ecoli rRNA inh OD600 -15.2 and Ecoli rRNA inh RFP -1.3.
COc1ccc(C(=O)Nc2ccc3c(c2)C(=O)N(C)[C@@H]2CC[C@@H](CC(=O)NCC4CC4)O[C@@H]2CO3)cc1 was read as Ecoli rRNA inh 0.8, Ecoli rRNA inh OD600 2.4 and Ecoli rRNA inh RFP 0.9.
Cc1noc(C)c1S(=O)(=O)N(C)C[C@@H]1OCCCC[C@H](C)Oc2ccc(NC(=O)CCC(F)(F)F)cc2C(=O)N([C@H](C)CO)C[C@@H]1C was read as Ecoli rRNA inh -0.4, Ecoli rRNA inh OD600 -3.1 and Ecoli rRNA inh RFP -0.5.
`Cc1ccccc1-c1ccc([C@H]2[C@@H](CO)N3C(=O)CN(C(=O)c4cccnc4)C[C@@H]23)cc1` gave Ecoli rRNA inh 3.5, Ecoli rRNA inh OD600 8.2 and Ecoli rRNA inh RFP 0.0.
For COC(=O)C1=C(C)N(Cc2ccc(F)cc2)C(=S)NC1c1cccc(OC)c1 (configuration not stated) the results were Ecoli rRNA inh -21.8*, Ecoli rRNA inh OD600 -14.7* and Ecoli rRNA inh RFP -2.2*.
Screening COCC(=O)Nc1ccc2c(c1)OC[C@@H](C)N(C(=O)c1ccccn1)C[C@@H](C)[C@@H](OC)CN(C)C2=O returned Ecoli rRNA inh 2.5, Ecoli rRNA inh OD600 3.3 and Ecoli rRNA inh RFP -2.3.
For CC(=O)N1CC2(C1)[C@H](c1ccc(-c3ccccc3C)cc1)[C@@H](CO)N2C(C)=O the results were Ecoli rRNA inh 0.2, Ecoli rRNA inh OD600 -4.6 and Ecoli rRNA inh RFP -2.7.
For CC(C)NC(=O)N(C)C[C@H]1Oc2c(NS(=O)(=O)c3cccs3)cccc2C(=O)N([C@@H](C)CO)C[C@H]1C the results were Ecoli rRNA inh 2.1, Ecoli rRNA inh OD600 -4.7 and Ecoli rRNA inh RFP -2.7.
CCCc1nc2sc3ccccc3c(=O)c2c(=O)n1Cc1ccccc1 was read as Ecoli rRNA inh 7.7, Ecoli rRNA inh OD600 8.0 and Ecoli rRNA inh RFP 2.2.
COc1cccc(NC(=O)Nc2ccc3c(c2)C(=O)N(C)[C@@H]2CC[C@H](CC(=O)O)O[C@@H]2CO3)c1 was read as Ecoli rRNA inh -1.5, Ecoli rRNA inh OD600 -9.9 and Ecoli rRNA inh RFP -4.2.
`CO[C@@H]1CN(C)C(=O)c2ccc(NC(=O)c3ccccc3)cc2OC[C@H](C)N(C(=O)C2CC2)C[C@H]1C` gave Ecoli rRNA inh 0.7, Ecoli rRNA inh OD600 3.4 and Ecoli rRNA inh RFP -1.2.
CCCC#Cc1ccc2c(c1)[C@H]1[C@H](CCN1C(=O)C1CCCCC1)[C@@H](CO)N2 was read as Ecoli rRNA inh -3.9, Ecoli rRNA inh OD600 -4.3 and Ecoli rRNA inh RFP 2.8.
COc1ccc(S(=O)(=O)N2CC[C@@H]3[C@@H](CO)N(C)c4ccc(-c5ccccc5F)cc4[C@@H]32)cc1 was read as Ecoli rRNA inh 0.7, Ecoli rRNA inh OD600 8.7 and Ecoli rRNA inh RFP -4.7.
COc1ccc(C(=O)Nc2ccc3c(c2)OC[C@@H](C)N(C)C[C@@H](C)[C@@H](OC)CN(C)C3=O)cc1 was read as Ecoli rRNA inh 0.4, Ecoli rRNA inh OD600 1.5 and Ecoli rRNA inh RFP 3.2.
Screening COc1ccc2c3c([nH]c2c1)[C@H](CO)N(Cc1ccccc1)CC31CN(CC2CC2)C1 returned Ecoli rRNA inh -5.0, Ecoli rRNA inh OD600 2.8 and Ecoli rRNA inh RFP 2.3.
Screening C[C@H](CO)N1C[C@H](C)[C@@H](CN(C)Cc2cccc3c2OCCCO3)OCc2ccccc2-c2c(n(C)c3ccccc23)C1=O returned Ecoli rRNA inh -8.4, Ecoli rRNA inh OD600 -38.7 and Ecoli rRNA inh RFP 18.7.
For CCC(=O)Nc1ccc2c(c1)C(=O)N(C)C[C@H](OC)[C@H](C)CN(Cc1nccs1)[C@@H](C)CO2 the results were Ecoli rRNA inh 1.0, Ecoli rRNA inh OD600 0.0 and Ecoli rRNA inh RFP -3.0.
CC(C)[C@H](NC(=O)C1CCCC1)C(=O)N1CCC[C@H]1C(=O)NCCc1ccccc1Cl was read as Ecoli rRNA inh -9.8, Ecoli rRNA inh OD600 -3.1 and Ecoli rRNA inh RFP 2.1.
For CCC(C)CN1C(=O)CSCC1(C)C(=O)NCc1ccccc1 (configuration not stated) the results were Ecoli rRNA inh 11.4, Ecoli rRNA inh OD600 10.0 and Ecoli rRNA inh RFP -0.4.
C/C=C/c1ccc([C@@H]2[C@@H](CO)N[C@@H]2CN(C)S(=O)(=O)c2ccccc2)cc1 was read as Ecoli rRNA inh 0.7, Ecoli rRNA inh OD600 -27.1 and Ecoli rRNA inh RFP 9.7.
C[C@H](CO)N1C[C@H](C)[C@H](CN(C)S(=O)(=O)c2cccs2)Oc2ccc(NC(=O)Nc3ccc(C(F)(F)F)cc3)cc2C1=O was read as Ecoli rRNA inh 2.0, Ecoli rRNA inh OD600 -0.3 and Ecoli rRNA inh RFP 0.6.
`C[C@@H]1CN([C@H](C)CO)C(=O)c2cc(NC(=O)CCCCCC(=O)Nc3ccccc3N)ccc2O[C@H]1CN(C)C(=O)Nc1ccccc1` gave Ecoli rRNA inh 2.0, Ecoli rRNA inh OD600 5.4 and Ecoli rRNA inh RFP -1.2.
`C[C@H](CO)N1C[C@H](C)[C@@H](CN(C)S(=O)(=O)c2ccc(F)cc2)Oc2ccc(NS(=O)(=O)c3ccccc3)cc2CC1=O` gave Ecoli rRNA inh -3.5, Ecoli rRNA inh OD600 -6.8 and Ecoli rRNA inh RFP -0.6.
Screening C[C@@H]1CCCCO[C@@H](CN(C)Cc2ccc3c(c2)OCO3)[C@@H](C)CN([C@H](C)CO)C(=O)c2cc(NC(=O)Cc3ccccc3)ccc2O1 returned Ecoli rRNA inh 1.7, Ecoli rRNA inh OD600 -8.5 and Ecoli rRNA inh RFP 1.8.
`C[C@@H]1CCCCO[C@H](CN(C)C(=O)Nc2cccc3ccccc23)[C@@H](C)CN([C@H](C)CO)C(=O)c2cc(NS(=O)(=O)c3cn(C)cn3)ccc2O1` gave Ecoli rRNA inh -0.7, Ecoli rRNA inh OD600 -9.8 and Ecoli rRNA inh RFP -0.8.

For reference, 2 of the compounds above:
For CC(C)NC(=O)N(C)C[C@H]1Oc2c(NS(=O)(=O)c3cccs3)cccc2C(=O)N([C@@H](C)CO)C[C@H]1C the results were Ecoli rRNA inh 2.1, Ecoli rRNA inh OD600 -4.7 and Ecoli rRNA inh RFP -2.7.
CCCc1nc2sc3ccccc3c(=O)c2c(=O)n1Cc1ccccc1 was read as Ecoli rRNA inh 7.7, Ecoli rRNA inh OD600 8.0 and Ecoli rRNA inh RFP 2.2.

The main list resumes, repeating the two entries before the break.
Screening C[C@@H]1CCCCO[C@@H](CN(C)Cc2ccc3c(c2)OCO3)[C@@H](C)CN([C@H](C)CO)C(=O)c2cc(NC(=O)Cc3ccccc3)ccc2O1 returned Ecoli rRNA inh 1.7, Ecoli rRNA inh OD600 -8.5 and Ecoli rRNA inh RFP 1.8.
`C[C@@H]1CCCCO[C@H](CN(C)C(=O)Nc2cccc3ccccc23)[C@@H](C)CN([C@H](C)CO)C(=O)c2cc(NS(=O)(=O)c3cn(C)cn3)ccc2O1` gave Ecoli rRNA inh -0.7, Ecoli rRNA inh OD600 -9.8 and Ecoli rRNA inh RFP -0.8.
`C[C@@H]1CN([C@@H](C)CO)C(=O)c2cc(NS(=O)(=O)c3cccs3)ccc2O[C@@H](C)CCCCO[C@H]1CN(C)Cc1ccc2c(c1)OCO2` gave Ecoli rRNA inh -1.8, Ecoli rRNA inh OD600 3.8 and Ecoli rRNA inh RFP 1.8.
CN1C(=O)c2cc(NC(=O)Nc3ccccc3Cl)ccc2OC[C@H]2O[C@H](CC(=O)O)CC[C@H]21 was read as Ecoli rRNA inh 8.2, Ecoli rRNA inh OD600 5.5 and Ecoli rRNA inh RFP -1.4.
C[C@H]1CN([C@@H](C)CO)C(=O)CCCn2cc(nn2)CO[C@H]1CN(C)C(=O)c1ccccc1 was read as Ecoli rRNA inh -1.0, Ecoli rRNA inh OD600 -9.7 and Ecoli rRNA inh RFP -0.8.
Screening Cc1ccc(S(=O)(=O)Nc2ccc3c(c2)C(=O)N([C@@H](C)CO)C[C@@H](C)[C@@H](CN(C)C(=O)c2ccncc2)OCCCC[C@H](C)O3)cc1 returned Ecoli rRNA inh 1.4, Ecoli rRNA inh OD600 2.7 and Ecoli rRNA inh RFP -4.0.
For CN(C)CC(=O)Nc1ccc2c(c1)[C@H]1C[C@H](CC(=O)NCc3ccccc3F)O[C@@H](CO)[C@H]1O2 the results were Ecoli rRNA inh 0.5, Ecoli rRNA inh OD600 -11.1 and Ecoli rRNA inh RFP 0.4.
Screening COc1ccc(S(=O)(=O)Nc2ccc3c(c2)CC(=O)N([C@H](C)CO)C[C@@H](C)[C@@H](CN(C)S(=O)(=O)c2ccccc2)O3)cc1 returned Ecoli rRNA inh -2.0, Ecoli rRNA inh OD600 -2.9 and Ecoli rRNA inh RFP 2.5.
For CNC[C@@H]1OCCCC[C@H](C)Oc2ccc(NC(=O)NC3CCCCC3)cc2C(=O)N([C@H](C)CO)C[C@@H]1C the results were Ecoli rRNA inh 4.4, Ecoli rRNA inh OD600 1.6 and Ecoli rRNA inh RFP 3.0.
Screening COc1ccc(NC(=O)N(C)C[C@@H]2OCCCC[C@H](C)Oc3ccc(NC(=O)c4ccncc4)cc3C(=O)N([C@H](C)CO)C[C@@H]2C)cc1 returned Ecoli rRNA inh -1.9, Ecoli rRNA inh OD600 0.4 and Ecoli rRNA inh RFP 0.0.
CCC(=O)N1CC(=O)N2[C@@H](CO)[C@@H](c3ccc(-c4ccccc4F)cc3)[C@@H]2C1 was read as Ecoli rRNA inh 4.9, Ecoli rRNA inh OD600 -1.1 and Ecoli rRNA inh RFP 0.7.

Source: PubChem
